# rRNA inh HTS = inhibitors of bacterial rRNA selective over humanized ribosomes. E. coli WT GFP vs humanized-ribosome RFP mutants, fluorescence, 24 h; hits give low values; DMSO median 0, no signal -100. GFP signal change (wild-type ribosome), % (test concentration not listed). actives 1.6% (n = 350,000). AID 720706;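 active = significant combined selectivity score with lowered wild-type GFP, culture density cut under 30%, mutant RFP and density less affected; inactive = any of these conditions unmet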; also: one replicate is shown; some compounds called inactive have numbers as strong as hits
# rRNA inh HTS OD600 = also measured in rRNA inh HTS; calls as there; OD600 change, %; measured here: OD600 growth;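 optical density of the mix in the first replicate; 0 = DMSO median and -100 = no signal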
# rRNA inh HTS RFP = second read-out of rRNA inh HTS, no call of its own (marks repeat the call); RFP signal change, %; measured here: RFP humanized mutant strains;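 first replicate; 0 = DMSO median and -100 = no signal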
# * hit, by the source's call; & = joins results of further samples. Only part of the results is shown (hit frequency here may not be typical).
1: COc1cccc(CNC(=O)c2cc3c(c(-c4cccc(-c5cccc(C#N)c5)c4)n2)[C@H](CCO)N(S(=O)C(C)(C)C)C3)c1 (stereo partly specified)
2: Cc1ccc(S(=O)(=O)N(C)C[C@@H]2OCc3cn(nn3)CCCC(=O)N([C@@H](C)CO)C[C@H]2C)cc1
3: CNC[C@H]1Oc2ccc(NS(=O)(=O)c3ccc(C)cc3)cc2C(=O)N([C@H](C)CO)C[C@H]1C
4: O=C(C(=O)N1CCN(c2ccccc2)CC1)c1ccc2c(c1)OCO2
5: C[C@H]1CN([C@@H](C)CO)C(=O)c2cccc(NC(=O)Nc3ccc(C(F)(F)F)cc3)c2O[C@@H]1CN(C)Cc1ccc2c(c1)OCO2
6: COc1ccccc1-c1ccc2c(c1)O[C@H](CN(C)C(C)=O)[C@H](C)CN([C@@H](C)CO)S2(=O)=O
entry no.,1,2,3,4,5,6
rRNA inh HTS,-22,-13&2,-1,-10,0,-7
rRNA inh HTS OD600,-31,6&4,7,-9,-2,-8
rRNA inh HTS RFP,5.0,10&0.3,-1.5,3.0,1.0,-0.7

7: C[C@@H]1CN([C@@H](C)CO)C(=O)c2cc(N(C)C)ccc2O[C@H]1CN(C)C(=O)NC1CCCCC1
8: C[C@@H]1CN([C@@H](C)CO)C(=O)c2cccc(NS(=O)(=O)c3ccc(F)cc3)c2O[C@@H]1CN(C)S(=O)(=O)c1cccs1
9: Cc1nn(C)cc1NC(=O)C[C@@H]1CC[C@H]2[C@H](COc3ccc(NC(=O)c4cccc(F)c4)cc3C(=O)N2C)O1
10: O=C(C[C@@H]1CC[C@H](NC(=O)Nc2ccccc2F)[C@H](CO)O1)NCc1ccccc1
11: COCCNC(=O)C[C@H]1C[C@H]2c3cc(NC(=O)Nc4ccc(OC)cc4)ccc3O[C@H]2[C@H](CO)O1
12: CCCNC(=O)[C@H]1[C@H](CO)[C@H]2Cn3c(ccc(/C=C/c4ccccc4)c3=O)[C@@H]1N2C(=O)c1cccnc1
entry no.,7,8,9,10,11,12
rRNA inh HTS,1,-8,0,-1,5,-4
rRNA inh HTS OD600,1,-5,-8,-1,13,-5
rRNA inh HTS RFP,-1.3,0.9,-2.2,-1.0,0.8,1.2

13: C[C@H]1CN([C@@H](C)CO)C(=O)c2cc(-c3cccc(C#N)c3)cnc2O[C@H]1CN(C)C
14: COc1ccc(Cl)cc1-c1cc(C(=O)NCc2cccc(C(F)(F)F)c2)[nH]n1
15: Cc1ccc(S(=O)(=O)N(C)C[C@@H]2OCCCC[C@H](C)Oc3ccc(NS(=O)(=O)c4ccccc4)cc3C(=O)N([C@H](C)CO)C[C@H]2C)cc1
16: C[C@@H]1CN([C@H](C)CO)C(=O)Cc2cc(NC(=O)Nc3ccc(F)cc3)ccc2O[C@@H]1CN(C)CC1CCCCC1
17: CCCC#Cc1cnc2c(c1)C(=O)N([C@H](C)CO)C[C@H](C)[C@@H](CN(C)Cc1ccc3c(c1)OCO3)O2
18: CCc1nc2c(OCCC3CCCCC3)cccn2c1N(C=O)Cc1ccccc1
entry no.,13,14,15,16,17,18
rRNA inh HTS,2,-1,-1,-13,0,-10
rRNA inh HTS OD600,10,-10,-7,-37,13,-36
rRNA inh HTS RFP,-2.2,16,2.0,5.1,-1.5,38

19: COc1ccc(NC(=O)N(C)C[C@@H]2Oc3ncc(-c4cc5ccccc5o4)cc3C(=O)N([C@H](C)CO)C[C@@H]2C)cc1
20: CCCN1C[C@@H](C)[C@H](OC)CN(C)C(=O)c2cc(NC(=O)Nc3c(C)noc3C)ccc2OC[C@@H]1C
21: CO[C@@H]1CN(C)C(=O)c2cc(NC(=O)Nc3cccc(Cl)c3)ccc2OC[C@@H](C)NC[C@H]1C
22: CCS(=O)(=O)Nc1ccc2c(c1)C(=O)N(C)C[C@@H](OC)[C@@H](C)CN(C(=O)NC(C)C)[C@@H](C)CO2
23: COCCNC(=O)C1(C)CCN(C(=O)c2sc(-c3ccccc3)nc2C)C1 (stereo unspecified)
24: C[C@H](CO)N1C[C@H](C)[C@H](CN(C)S(=O)(=O)c2ccccc2)Oc2ccc(NC(=O)C3CC3)cc2C1=O
entry no.,19,20,21,22,23,24
rRNA inh HTS,-6,3,-5,-2,2,0
rRNA inh HTS OD600,4,3,-5,3,-1,1
rRNA inh HTS RFP,1.0,-4.7,5.9,-0.5,-1.6,-0.3

25: O=C(NCCN1CCC(n2c(=O)[nH]c3ccccc32)CC1)c1ccncc1
26: CCNC(=O)C1CCCN(C(=O)c2cccc3ccccc23)CC1 (stereo unspecified)
27: COc1cc2c(cc1O)C(CSC)Cc1cc3c(cc1N(C)CC2)OCO3 (stereo unspecified)
28: C[C@H](CO)N1C[C@H](C)[C@H](CN(C)C(=O)Nc2ccccc2)OCCCC[C@H](C)Oc2ccc(NS(=O)(=O)c3cccs3)cc2C1=O
29: C[C@@H]1CN([C@@H](C)CO)C(=O)c2cc(/C=C/c3ccccc3)cnc2O[C@H]1CN(C)C(=O)c1cccc(F)c1
30: COc1ccc(NC(=O)Nc2ccc3c(c2)CC(=O)N([C@@H](C)CO)C[C@H](C)[C@H](CN(C)S(=O)(=O)c2ccc(C)cc2)O3)cc1
entry no.,25,26,27,28,29,30
rRNA inh HTS,0,5,-6,-2,-7,-1
rRNA inh HTS OD600,8,16,-54,-7,-19,-12
rRNA inh HTS RFP,-4.2,0.4,12,-1.2,9.3,-0.2

31: C[C@H]1CN([C@@H](C)CO)C(=O)CCCn2cc(nn2)CO[C@@H]1CN(C)S(=O)(=O)c1cccc(C#N)c1
32: O=C(c1ccc(F)cc1)N1CCCCN2[C@@H](CO)[C@@H](c3ccc(C#CC4(O)CCCC4)cc3)[C@@H]2C1
33: C[C@H](CO)N1C[C@H](C)[C@H](CN(C)Cc2ccc(Oc3ccccc3)cc2)OCc2cn(nn2)CCCC1=O
34: COc1cccc(S(=O)(=O)N(C)C[C@H]2Oc3ncc(-c4cccc(C(=O)N(C)C)c4)cc3C(=O)N([C@H](C)CO)C[C@H]2C)c1
35: CCC(=O)N1[C@@H](C#N)[C@H](c2ccccc2-c2ccccc2)[C@@H]1CO
36: Cc1noc(C)c1NC(=O)N(C)C[C@@H]1OCCCC[C@H](C)Oc2ccc(NC(=O)CCC(F)(F)F)cc2C(=O)N([C@@H](C)CO)C[C@@H]1C
entry no.,31,32,33,34,35,36
rRNA inh HTS,12&0,1,2,3,2,3
rRNA inh HTS OD600,3&1,6,-2,7,1,-1
rRNA inh HTS RFP,-0.2&-1.9,-1.4,-1.7,-4.0,0.4,-0.9

37: C[C@H](CO)N1C[C@H](C)[C@@H](CN(C)Cc2ccc(C(F)(F)F)cc2)Oc2ccc(NS(=O)(=O)c3ccc(Cl)cc3)cc2C1=O
38: CCC(=O)N(C)C[C@@H]1Oc2cc(C#CC(C)(C)O)ccc2S(=O)(=O)N([C@H](C)CO)C[C@@H]1C
39: Nc1ncnc2c1ccn2[C@H]1CN(Cc2ccc(Cl)cc2)C[C@@H](CO)O1
40: CO[C@H]1CN(C)C(=O)c2ccc(NC(=O)C3CCCC3)cc2OC[C@H](C)N(C(C)=O)C[C@H]1C
41: COc1ccccc1-c1ccc2c(c1)O[C@H](CN(C)C(=O)Nc1ccccc1)[C@H](C)CN([C@H](C)CO)S2(=O)=O
42: CCNC(=O)C[C@H]1CC[C@H](NC(=O)C2CC2)[C@@H](CO)O1
entry no.,37,38,39,40,41,42
rRNA inh HTS,-4,1,1,1,-7,5
rRNA inh HTS OD600,-16,-3,-1,1,-12,9
rRNA inh HTS RFP,-1.1,-1.4,-0.8,0.2,2.0,-2.7

43: C[C@@H]1CCCCO[C@H](CN(C)CC2CC2)[C@H](C)CN([C@@H](C)CO)C(=O)c2cc(NC(=O)c3ccncc3)ccc2O1
44: Cc1ccccc1-c1ccc(C2[C@H]3CNC[C@@H]2N3S(=O)(=O)c2ccccc2C)cc1 (stereo partly specified)
45: CCCc1cc(CCC)n2nc(N)nc2n1
46: Cc1ccc(S(=O)(=O)Nc2ccc3c(c2)C(=O)N([C@@H](C)CO)C[C@@H](C)[C@H](CN(C)Cc2ccccc2)O3)cc1
47: COc1cccc2[nH]c(-c3ccccn3)nc12
48: Cc1ccc(S(=O)(=O)N(C)C[C@H]2OCCCC[C@H](C)Oc3ccc(NS(=O)(=O)c4ccc(Cl)cc4)cc3C(=O)N([C@@H](C)CO)C[C@@H]2C)cc1
entry no.,43,44,45,46,47,48
rRNA inh HTS,5,-48&-58,24,-1,2,-1
rRNA inh HTS OD600,20,-58&-74,13,-4,16,-6
rRNA inh HTS RFP,-0.6,0.3&-12,4.5,-0.5,0.1,1.0

# Compounds 47 through 48, quoted:
47: COc1cccc2[nH]c(-c3ccccn3)nc12
48: Cc1ccc(S(=O)(=O)N(C)C[C@H]2OCCCC[C@H](C)Oc3ccc(NS(=O)(=O)c4ccc(Cl)cc4)cc3C(=O)N([C@@H](C)CO)C[C@@H]2C)cc1
entry no.,47,48
rRNA inh HTS,2,-1
rRNA inh HTS OD600,16,-6
rRNA inh HTS RFP,0.1,1.0

# (next part)
49: CC(=O)NC[C@H]1[C@@H](c2ccc(C3=CCCC3)cc2)[C@@H](CO)N1C(=O)NC(C)C
50: Nc1nc2c(C(=O)N3CCCC3)nnn2c2ccccc12
51: COc1ccccc1CN1[C@@H]2c3ccc(C4=CCCC4)c(=O)n3C[C@H]1[C@H](CO)[C@H]2C(=O)N(C)C
52: C[C@@H]1CN([C@@H](C)CO)C(=O)Cc2cc(NC(=O)CCC(F)(F)F)ccc2O[C@H]1CN(C)C(=O)NC1CCCCC1
53: C[C@@H]1CN([C@H](C)CO)S(=O)(=O)c2ccc(C3=CCCC3)cc2O[C@H]1CN(C)C(=O)c1ccc(F)cc1
54: COc1ccc(-c2cn(CC[C@@H]3CC[C@@H](NC(=O)CCN4CCCCC4)[C@@H](CO)O3)nn2)cc1
entry no.,49,50,51,52,53,54
rRNA inh HTS,0,8,1,3,-16,1
rRNA inh HTS OD600,3,13,10,7,-38,-4
rRNA inh HTS RFP,-0.6,-0.4,1.5,-1.4,4.3,-3.6

# Results in sequence from the entries so far:
# rRNA inh HTS OD600, entries 49–54, in order: 3, 13, 10, 7, -38, -4
# rRNA inh HTS, entries 49–54, in order: 0, 8, 1, 3, -16, 1
# rRNA inh HTS RFP, entries 49–54, in order: -0.6, -0.4, 1.5, -1.4, 4.3, -3.6

# Other compounds follow:
55: Cc1noc(C)c1S(=O)(=O)N(C)C[C@@H]1Oc2c(NC(=O)C3CCCCC3)cccc2C(=O)N([C@@H](C)CO)C[C@@H]1C
56: COc1ccc(S(=O)(=O)N(C)C[C@@H]2Oc3c(NC(=O)C4CCOCC4)cccc3C(=O)N([C@@H](C)CO)C[C@@H]2C)cc1
57: O=C(c1cccc(F)c1)N1CC(=O)N2[C@H](CO)[C@@H](c3ccc(-c4cccnc4)cc3)[C@@H]2C1
58: CO[C@H](CN(C)S(=O)(=O)c1ccccc1)[C@@H](C)CN(Cc1ccccc1Cl)[C@@H](C)CO
59: Cc1cc2c(cc1C)-n1nnnc1C(N(C)Cc1ccccc1)C(=O)N2 (stereo unspecified)
60: Cc1cccc(S(=O)(=O)N2CCCCN3[C@H](C2)[C@@H](c2ccc(-c4cccnc4)cc2)[C@@H]3CO)c1
entry no.,55,56,57,58,59,60
rRNA inh HTS,6,2,-1,-2,-45,-14
rRNA inh HTS OD600,7,-2,12,-8,-70,-36
rRNA inh HTS RFP,-0.4,3.3,-1.0,-4.3,-7.4,-2.1

61: O=C(CCN1CCCCC1)N[C@@H]1CC[C@H](CC(=O)N2CCC(Cc3ccccc3)CC2)O[C@@H]1CO
62: COc1ccc2c3c([nH]c2c1)[C@H](CO)N(C(=O)Nc1ccc(F)cc1)CC31CN(CC2CCOCC2)C1
63: Cc1noc(C)c1NC(=O)Nc1cccc2c1O[C@H](CN(C)S(=O)(=O)c1ccc(F)cc1)[C@H](C)CN([C@H](C)CO)C2=O
64: COc1cccc(S(=O)(=O)N(C)C[C@H]2Oc3cc(C#CCN(C)C)ccc3S(=O)(=O)N([C@@H](C)CO)C[C@H]2C)c1
65: COc1ccc(CN(C)C[C@@H]2Oc3c(NC(=O)Nc4ccc(C(F)(F)F)cc4)cccc3C(=O)N([C@@H](C)CO)C[C@H]2C)cc1
66: COc1ccc(S(=O)(=O)N(C)C[C@@H]2OCCCC[C@H](C)Oc3ccc(NS(C)(=O)=O)cc3C(=O)N([C@H](C)CO)C[C@@H]2C)cc1
entry no.,61,62,63,64,65,66
rRNA inh HTS,2,-3,-1,0,1,-5
rRNA inh HTS OD600,-4,-2,3,-5,-9,-14
rRNA inh HTS RFP,2.0,2.0,-1.6,1.9,0.4,0.4

67: COc1cc(OC)cc(-c2c(Sc3ccccc3)c3cc(-c4ccc(SC)cc4)ccc3n2C)c1
68: CCC(=O)Nc1ccc2c(c1)OC[C@@H](C)N(Cc1ccccc1)C[C@@H](C)[C@H](OC)CN(C)C2=O
69: C[C@@H]1CCCCO[C@@H](CN(C)C(=O)Nc2ccc(F)cc2)[C@H](C)CN([C@@H](C)CO)C(=O)c2cc(NC(=O)Nc3ccc4c(c3)OCO4)ccc2O1
70: CCCC(=O)Nc1ccc2c(c1)C(=O)N(C)C[C@H](OC)[C@@H](C)CN(Cc1ccccc1)[C@H](C)CO2
71: CCCNC(=O)N1C[C@H]2[C@@H](c3ccccc31)[C@@H](CO)N2CC1CCCC1
72: Cc1ccc(-c2ccc3c(c2)O[C@@H](CN(C)Cc2cccnc2)[C@H](C)CN([C@H](C)CO)S3(=O)=O)cc1
73: C/C=C/c1ccc([C@@H]2[C@@H](CO)N3C(=O)CN(S(=O)(=O)c4ccccc4)C[C@H]23)cc1
entry no.,67,68,69,70,71,72,73
rRNA inh HTS,9,-6,2,-8,-2,-18,-3
rRNA inh HTS OD600,19,-6,2,-24,4,-46,6
rRNA inh HTS RFP,-3.0,-1.3,-1.5,0.0,-2.8,33,-1.2
